Rce1 inhib = yeast Rce1p protease inhibitors, primary screen, biochemical, fluorescence, cell-free homogeneous; CAAX prenyl protease 2 (Saccharomyces cerevisiae (strain ATCC 204508 / S288c)), Q03530; yeast membranes, quenched prenylated peptide cleavage fluorescence; calls only; AID 2563, 2010; hit rate 0.27% among 290,000;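 active = fall in fluorescence gain of 50% or more versus controls, with final raw signal at or below 3038400; inconclusive = same 50% fall but final raw signal above 3038400; inactive = fall in fluorescence gain under 50%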;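 also: plate controls were neutral control wells for no effect and wells lacking membranes for full effect; tested at 10 µM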
Target sequence (Q03530 whole entry, looked up): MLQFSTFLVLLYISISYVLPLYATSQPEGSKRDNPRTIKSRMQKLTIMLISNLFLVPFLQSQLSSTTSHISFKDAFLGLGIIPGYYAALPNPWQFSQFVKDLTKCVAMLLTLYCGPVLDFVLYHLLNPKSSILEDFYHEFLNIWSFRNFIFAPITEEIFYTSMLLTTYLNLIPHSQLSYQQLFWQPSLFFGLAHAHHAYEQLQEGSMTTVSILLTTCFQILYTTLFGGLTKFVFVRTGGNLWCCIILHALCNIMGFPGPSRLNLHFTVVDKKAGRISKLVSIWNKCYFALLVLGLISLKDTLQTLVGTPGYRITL
UUG fidelity = modulators of yeast start codon fidelity, primary screen, whole organism, S. cerevisiae, single point, plate reader; S. cerevisiae UUG-firefly luciferase reporter, luminescence/redox ratio; activity score, % at 18.7 µM; hit rate 0.13% among 350,000; AID 602363, 2012;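 active = replicate mean at a twofold rise or more, about +100% in these data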;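 also: firefly luciferase made from a UUG start codon reports start codon fidelity; reporter light over untreated wells divided by growth signal over untreated wells; some hits fall short of that in this replicate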
PABP FP inh = PABP poly(A) RNA binding inhibitors, primary screen, biochemical, fluorescence polarization, uHTS; Polyadenylate-binding protein 1 (Homo sapiens), P11940; inhibition, % at 35 µM; hit rate 1% among 290,000;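 active = 50% or more with normal probe brightness, or confirmed in later tests; inconclusive = above 50% with abnormal brightness, or retests that disagree; inactive = below 50% or failed in later tests; about a fifth of its hits are not listed in these tables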;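 also: calls also rest on retests at 20 µM and on dose response follow-up; controls were probe without protein and protein plus probe with vehicle; some compounds called inactive have numbers as strong as hits; many hits fall short of the cut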
CSC inhib = cancer stem cell viability inhibitors, primary screen, luminescence | inhibition, % at 7.5 µM | hit rate 1.1% among 300,000 | AID 2717, 2010 | cancer stem cell-like cells viability;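 active = mean at 75% or more and at least half the replicates too; inconclusive = mean and replicates disagree; tested in HMLE shEcad cells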;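 also: 0% = median of negative and 100% = median of positive control wells; the first replicate is given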
HIV Env fusion = inhibitors of HIV-1 Env-driven cell-cell fusion, primary screen, HeLa-JRFL effector, CEM21 target cells, luciferase; AID 651610, 2012; hit rate 1.1% among 360,000; inhibition, % at 12.3 µM;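 active = mean replicate inhibition score of at least 50 and every replicate individually at or above 50; inconclusive = only one of the two criteria met; inactive = mean below 50 and not all replicates reaching 50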;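 also: 0% = plate neutral controls and 100% = maraviroc near 300 nM; one replicate is shown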
MT1-MMP act inh = blockers of MT1-MMP proenzyme processing, primary screen, HT1080 RFP-PRO-GFP cells, GFP/RFP fluorescence; GFP/RFP ratio change, % at 20 µM; GFP/RFP ratio fluorescence, overnight; percent of plate control window, DMSO zero; hit rate 0.061% among 360,000;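 active = GFP/RFP ratio change of at least 30% with cell ATP level not reduced by more than half and red fluorescence within 50% of control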; also: strong numbers were not always called active
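Assay system – RFP-PRO-GFP reporter HT1080 cells · Compound dosing – single dose of 20 µM compound, 1% DMSO final · Incubation – overnight compound exposure at 37 °C · Measure – GFP/RFP fluorescence ratio · Benchmarks – DMSO wells and RFP-L50D-GFP cells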
eIF4H inh = human eIF4H binding inhibitors, primary screen, translation initiation inhibitor project, biochemical, uHTS, fluorescence polarization; hit rate 0.94% among 290,000; AID 2012, 2009; eIF4H fluorescence polarization binding assay; inhibition, % at 35 µM; Eukaryotic translation initiation factor 4H (Homo sapiens), Q15056;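 active = 50% or more with normal probe brightness, or confirmed in later tests; inconclusive = above 50% with abnormal brightness, or retests that disagree; inactive = below 50% or failed in later tests; about a fifth of its hits are not listed in these tables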;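 also: calls also rest on retests at 20 µM and on dose response follow-up; 0% = protein and probe with vehicle and 100% = probe without protein; strong numbers were not always called active; many hits fall short of the cut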
MT1-MMP act inh RFP = further read-out of MT1-MMP act inh, marked with its call; RFP signal change, %; measured here: RFP expression control read;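 0 = vehicle wells; hits needed this value within 50% of zero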
Active calls of the source: *; i = inactive; ? = inconclusive; · = no result given.

SMILES | Rce1 inhib | UUG fidelity | PABP FP inh | CSC inhib | HIV Env fusion | MT1-MMP act inh | MT1-MMP act inh RFP | eIF4H inh
Cc1cccc(C)c1NC(=O)C1(NC(=O)C2CCCN2C(=O)OC(C)(C)C)CCCCC1 (stereo not given) | i | -10 | 9 | -14 | -60 | 1 | 2 | 1
O=C(c1cc2ccccc2oc1=O)N(Cc1ccco1)C1CCS(=O)(=O)C1 (stereo not given) | i | 0 | 21 | · | · | 1 | 5 | 5
CC(C(=O)N1CCCCC1)N(C)CC(=O)Nc1ccc(F)c(F)c1F (stereo not given) | · | -11 | · | · | 6 | 2 | 0 | ·
O=C(CSc1ccc(Cl)cc1)Nc1ccc(C2SCCS2)cc1 | i | · | 4 | 1 | -4 | 0 | 1 | 11
Cn1c(CO)cnc1S(=O)(=O)Cc1ccc(Cl)cc1 | i | -2 | 7 | -15 | 17 | 1 | 6 | 2
CCCn1cc(SCC(=O)Nc2nnc(C)s2)c2ccccc21 | i | -5 | -5 | -5 | 4 | 0 | -2 | 1
O=C(c1cccc2ccccc12)C1CCCN(C(=O)CCN2CCCO2)C1 (stereo not given) | i | 1 | 6 | -7 | 15 | 1 | -5 | -2
C[C@@H]1CC=C[C@H]2[C@H]1C(=O)N(Cc1ccccc1)[C@H]2c1ccoc1 | i | -1 | 4 | 15 | -7 | -8 | -6 | 3
C=CCNc1nc(-c2c(C)nc3sccn23)cs1 | i | · | -3 | 5 | -110 | 3 | -7 | 10
Cc1ccc(CNC(=O)c2oc3ccc(S(=O)(=O)N4CCOCC4)cc3c2C)cc1 | i | -18 | -5 | 14 | · | 1 | -7 | -5
COc1cccc(OC)c1-c1nn2c(-c3ccccc3Cl)nnc2s1 | i | -26 | 5 | -15 | -50 | 4 | 1 | 9
CN(CC(=O)NC(=O)NCc1ccccc1)Cc1ccc(Cl)c(Cl)c1 | i | -4 | -1 | 17 | 13 | -2 | -4 | 4
CC(C)NC(=O)c1csc([C@@H]2O[C@H](CO)[C@H](O)[C@H](O)[C@H]2O)n1 | · | -12 | · | · | 11 | -1 | 1 | ·
CCOC(=O)C(C)On1c(-c2ccc(Cl)cc2)nc2ccc([N+](=O)[O-])cc21 (stereo not given) | i | · | 0 | -15 | · | -9 | -18 | 2
CCOC(=O)Cc1nnc(NC(=O)CC)s1 | i | -13 | -3 | -2 | · | -1 | 3 | -4
CC1(C)SC(=S)N(/N=C/c2ccccc2O)C1N(O)C(=O)Nc1ccccc1 (stereo not given) | i | · | 7 | 14 | 19 | -4 | -4 | -6
CCc1nc(SCC(=O)c2ccccc2)c2c(=O)n(C)c(=O)n(C)c2n1 | i | · | 6 | 6 | -1 | 3 | -4 | 7
Cc1ccc(NC(=O)C2CCC(CNc3c(N4CCC(C)CC4)c(=O)c3=O)CC2)cc1F (stereo not given) | i | · | 7 | -1 | 59* | 8 | -2 | -3
O=C1OCC=C1NNC(=O)c1cccnc1 | i | · | -9 | 2 | -6 | 0 | 3 | 6
CC(=O)c1ccc(N2CCN(C(=O)CNS(=O)(=O)c3ccc4c(c3)OCCCO4)CC2)c(F)c1 | · | -15 | · | · | 17 | 1 | -3 | ·
Cc1ccc(NC(=S)N2CCC(NC(=O)c3ccco3)CC2)cc1C | · | -25 | 6 | -12 | 10 | -7 | -5 | -11
CC(/C=N/NC(=O)c1nnn(-c2nonc2N)c1CN(C)C)=C\c1ccco1 | i | -6 | 3 | -3 | 14 | 7 | 5 | 6
Cc1ccc(CNC(=O)c2ccc(N3CCc4ccccc43)c([N+](=O)[O-])c2)cc1 | i | · | 2 | 10 | · | 24 | -15 | 3
COc1c(N2CCN(C(=S)Nc3ccc(F)cc3)C(C)C2)c(F)cc2c(=O)c(C(=O)O)cn(C3CC3)c12 (stereo not given) | i | -18 | -4 | -4 | · | -15 | -6 | -8
CC12CC3CC(C)(C1)CC(C(=O)Nc1nncs1)(C3)C2 | i | -19 | 7 | -10 | ? | -7 | -3 | -2
CCNC(=S)NCc1ccco1 | i | · | -2 | 6 | · | -2 | 4 | -13
O=[N+]([O-])c1ccccc1OCCN1CCCC1 | i | -8 | -4 | 11 | 8 | 0 | 3 | 0
CC(=O)N1CCN(C2c3cccc4cccc(c34)C2NS(=O)(=O)c2ccccc2)CC1 (stereo not given) | i | -7 | 8 | 11 | · | 3 | 5 | 18
CCOC(=O)C1=C(CS(=O)(=O)c2ccccc2)NC(=O)NC1c1ccccc1OC (stereo not given) | i | 6 | 10 | -11 | 9 | -3 | -2 | -2
CN(C(=O)c1cccc(NC(=O)Cc2ccc(NC(=O)C3CCN(C(=O)c4ccccc4)CC3)cc2)c1)C1CC1 | · | -1 | · | · | 5 | 0 | 4 | ·
O=C(CCNC(=O)c1ccccc1Cl)NCc1cccnc1 | i | · | · | 23 | 0 | 4 | 3 | ·
CCCCn1c(N)c(N(CC(C)C)C(=O)C2CCN(S(=O)(=O)c3ccc(C)cc3)CC2)c(=O)[nH]c1=O | i | · | · | -4 | 25 | 0 | 1 | ·
C=CCn1c(Cc2ccccc2)n[nH]c1=S | i | · | 1 | -11 | 3 | 0 | -1 | 2
O=C(O)CCCC(=O)Nc1ccc(Sc2ccc([N+](=O)[O-])cc2)cc1 | i | 4 | 6 | 1 | · | 1 | 3 | 3
COc1ccc(NC(=O)c2ccc3ccccc3c2OC)cc1 | i | -8 | · | 32 | -93 | -1 | -4 | ·
Cc1cccc(N2CCN(C(=O)NCc3ccc(F)cc3)CC2)c1C | i | -11 | -6 | 7 | -3 | 0 | -4 | 10
O=C(NCc1ccccn1)C1CC(c2ccccc2Cl)=NO1 (stereo not given) | i | -23 | -5 | 45 | 6 | -1 | 3 | -4
CC(=O)N1CCc2cc(S(=O)(=O)CCC(=O)Nc3ccccc3F)ccc21 | i | -11 | 0 | -11 | 6 | -3 | 1 | 11
O=C(O)c1ccc(S(=O)(=O)N(CCc2ccccc2)Cc2ccc(Cl)cc2)cc1 | i | 0 | -1 | 20 | 13 | -6 | -10 | 2
O=C(Nc1ccc2nc3ccccc3nc2c1)c1ccc(Br)cc1 | i | -21 | -9 | -3 | -43 | -1 | 5 | 16
Cc1cccnc1CCNC(=O)CC1C(=O)NCCN1CC1CCCCC1 (stereo not given) | · | · | 9 | 5 | -16 | 5 | -1 | 22
CC(C)CCN1CCC(C)(NC(=O)c2ccccc2)C1=O (stereo not given) | · | -3 | · | 5 | -8 | 4 | 8 | ·
O=C(NCSc1ccnc(SCNC(=O)c2ccc(F)cc2)n1)c1ccc(F)cc1 | i | 6 | 1 | -12 | -109 | 3 | 2 | -13
Oc1ccc(-c2nc3ccccc3nc2-c2ccc(O)cc2O)c(O)c1 | · | -2 | · | · | -1 | -1 | -2 | ·
COc1ccccc1N1C(=O)S/C(=C\c2cc(C)n(C)c2C)C1=O | i | · | 0 | -4 | -14 | -1 | -3 | 0
Cc1cc(Cl)ccc1OC(C)C(=O)Nc1ccc([N+](=O)[O-])cn1 (stereo not given) | i | -3 | -3 | 22 | · | -1 | -3 | 9
CCC1CCCCN1CCCNC(=O)c1ccc2c(c1)N(Cc1c(F)cccc1Cl)C(=O)CS2 (stereo not given) | i | -6 | · | -11 | 0 | 0 | 0 | ·
O=C(CN(C1CC1)S(=O)(=O)c1ccc(S(=O)(=O)NC2CCCCC2)cc1)Nc1ccccc1 | · | 7 | 1 | · | · | 2 | -4 | -12
Cc1ccc(CNc2ncnc(N)c2[N+](=O)[O-])cc1 | i | · | -5 | -6 | 20 | -15 | -5 | -3
COc1ccc(NC(=O)CCN2CCCCC2)cc1 | i | -15 | -10 | 9 | -22 | 1 | 0 | -4
CN(NC(=O)NN)c1ncc(C(F)(F)F)cc1Cl | i | -9 | 28 | -8 | -62 | -2 | 6 | -6
COc1cc(NC(=O)Nc2cccc(C(C)=O)c2)cc(OC)c1OC | i | -11 | 7 | 0 | -2 | 4 | 2 | 1
N#C/C(=C\c1ccccc1)C(=O)NCc1ccc(F)cc1 | i | -10 | 6 | -4 | -2 | 3 | 4 | -9
COC(=O)c1c(C)oc(C)c1S(=O)(=O)N1CCCC1 | i | · | 7 | -4 | 4 | 0 | 3 | -3
CCOc1ccc(NC(=O)c2nn(-c3ccc(OC)cc3OC)c(=O)c3ccccc23)cc1 | i | · | -23 | -23 | -22 | · | · | 14
O=C(COc1cccc(NC(=O)c2ccco2)c1)c1ccccc1 | i | -2 | -3 | 17 | -156 | 3 | 6 | -4
O=C(CSCc1ccc(Cl)cc1)NCCSCc1ccco1 | i | · | 1 | -4 | 6 | -3 | -2 | 2
COc1ccc(OC)c(N(CC(=O)NCc2cccnc2)S(C)(=O)=O)c1 | i | -21 | -3 | -4 | -57 | 4 | -3 | 5
COc1ccc(C(CNC(=O)c2sccc2C)N2CCOCC2)cc1 (stereo not given) | i | -21 | · | 5 | -22 | 0 | 1 | ·
CCOC(=O)c1cc(-c2ccc(OC)cc2F)nc2c1c(C)nn2CCC#N | i | -6 | -8 | 11 | 31 | -2 | -7 | 1

Additional records
SMILES | Rce1 inhib | UUG fidelity | PABP FP inh | CSC inhib | HIV Env fusion | MT1-MMP act inh | MT1-MMP act inh RFP | eIF4H inh
CC(=O)N1CC2(c3ccccc3)CN(C(C)=O)CC(c3ccccc3)(C1)C2=O | i | · | -5 | -15 | 5 | 1 | 8 | 4
CNC(=O)COC(=O)c1nc(-n2nc(C)cc2C)ccc1Cl | i | -19 | -14 | -6 | -17 | 15 | 6 | -14
Cc1ccc(C(C(=O)NCc2ccccc2)N(C(=O)c2ccccn2)c2ccccc2)o1 (stereo not given) | i | -3 | 6 | · | -6 | -4 | -1 | 16
Cc1ccc(S(=O)(=O)N2C[C@@H](C)[C@]3(C2)[C@H](O)[C@H](OC(=O)NC2CCCC2)C[C@H]2C(=O)N(c4ccccc4)C(=O)[C@H]23)cc1 | · | 20 | · | · | -97 | -3 | -3 | ·
COC(=O)c1c(S(=O)(=O)NCc2ccccc2)sc(C(=O)O)c1C | i | -29 | 12 | -5 | 15 | 4 | 5 | 2
CCn1cc(C(=O)NCC(OC)OC)c(=O)c2cc(S(=O)(=O)N3CCOCC3)ccc21 | i | 10 | 16 | 3 | 8 | -6 | -2 | 4
CCOc1ccccc1NC(=O)Cn1ncc2ccc([N+](=O)[O-])cc21 | i | -8 | -9 | 5 | 35 | 1 | -1 | -1
O=C(CN1C(=O)NC2(CCCC2)C1=O)Nc1cc(C(F)(F)F)ccc1N1CCOCC1 | · | -6 | · | -17 | 0 | -4 | 2 | ·
O=C(O)CC(NS(=O)(=O)c1ccc(Br)cc1)c1ccco1 (stereo not given) | i | -15 | 4 | -6 | -50 | 2 | 4 | 5
CCCCn1c(N)c(N(CC)C(=O)C2=NN(c3ccccc3)C(=O)CC2)c(=O)[nH]c1=O | · | -5 | · | -2 | 4 | 0 | 2 | ·
Cc1ccc(CN2CCC(N3CCC(C(=O)NCC4CCCO4)CC3)CC2)o1 (stereo not given) | i | -5 | -2 | -8 | 23 | · | · | 8

Rows are unselected, and some 2.9% of all compounds hit somewhere here.
